FEN1 inh: inhibitors of human flap endonuclease 1 | P39748 | Recombinant FEN1 flap cleavage, fluorescence, 15 min | Potency, µM (titrated, usually from 114 µM), without a hit: at the top dose activity change, negative = inhibition, hits mostly inhibitors | actives 0.35% (n = 390,000) | AID 588795; also: nearly all actives have a fitted effect of over 65% in size
Target sequence (P39748 whole entry, looked up): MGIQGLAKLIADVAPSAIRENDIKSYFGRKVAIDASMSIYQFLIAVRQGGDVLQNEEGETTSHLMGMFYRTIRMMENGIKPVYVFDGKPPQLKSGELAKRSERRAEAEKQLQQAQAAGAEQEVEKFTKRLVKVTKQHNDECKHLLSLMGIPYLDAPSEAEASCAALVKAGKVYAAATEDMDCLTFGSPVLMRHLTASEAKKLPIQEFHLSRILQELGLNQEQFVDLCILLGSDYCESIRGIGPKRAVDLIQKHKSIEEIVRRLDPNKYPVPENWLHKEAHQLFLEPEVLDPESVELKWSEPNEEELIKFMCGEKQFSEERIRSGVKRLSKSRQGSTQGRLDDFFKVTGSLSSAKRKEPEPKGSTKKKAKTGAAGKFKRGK
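FEN1 at 10 nM, compound pretreatment for 15 min (room temperature), 50 nM final substrate to initiate; endpoint reads at 0 and 15 min; DMSO-only plates used as vehicle background.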
TDP1 block: blocks human tyrosyl-DNA phosphodiesterase 1; actives 0.28% (n = 350,000); recombinant TDP1, AlphaScreen DNA substrate cleavage; Potency, µM (titrated, usually from 130 µM), for inactives: top-dose activity change, negative = inhibition, actives largely listed as inhibitors; AID 485290; Q9NUW8; also: nearly all actives have a fitted effect of over 40% in size
Target sequence (Q9NUW8 whole entry, looked up): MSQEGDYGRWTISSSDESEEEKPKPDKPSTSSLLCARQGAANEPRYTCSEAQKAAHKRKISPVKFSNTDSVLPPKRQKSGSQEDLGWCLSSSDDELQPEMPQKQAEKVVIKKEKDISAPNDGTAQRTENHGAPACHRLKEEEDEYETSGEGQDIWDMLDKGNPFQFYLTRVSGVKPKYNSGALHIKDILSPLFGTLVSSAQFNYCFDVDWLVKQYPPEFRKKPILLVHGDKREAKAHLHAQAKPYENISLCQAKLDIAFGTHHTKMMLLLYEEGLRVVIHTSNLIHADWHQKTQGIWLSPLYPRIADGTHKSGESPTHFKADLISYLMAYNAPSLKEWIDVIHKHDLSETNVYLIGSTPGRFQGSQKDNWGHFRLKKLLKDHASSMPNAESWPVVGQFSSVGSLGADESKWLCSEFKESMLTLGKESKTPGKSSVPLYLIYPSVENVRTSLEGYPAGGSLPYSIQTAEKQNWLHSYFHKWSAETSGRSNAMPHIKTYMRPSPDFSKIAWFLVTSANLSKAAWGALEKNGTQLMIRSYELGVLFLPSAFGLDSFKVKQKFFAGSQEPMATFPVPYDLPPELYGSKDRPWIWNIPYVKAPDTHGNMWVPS
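E. coli-derived human Tdp1, 1 nM final. Cpd preinc 15 min RT; substrate 15 nM final, 5 min RT; AS bead mix 10 ug/ml final, 10 min RT. Signal loss = tyrosine-FITC cleavage. No-enzyme wells = max signal.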
An asterisk follows results filed as active; . = no result given; & = joins results of further samples; [ ] = remark or other dose. Calls follow the shape of the dose curve; as a rule, active = well fitted inhibition curve with a large enough effect; inconclusive = small, poorly fitted or top-dose-only effect; inactive = no such curve, though single readings can be large or run the other way. % is scaled to controls: 0 for no effect and ±100 for the full control effect; potency is read from the fitted curve at half-maximal effect. A portion of the library, and most or all hits are left out here.

SMILES	FEN1 inh	TDP1 block
O=C1N=c2ccccc2=C1c1sc(=O)[nH]c1O	-2%	5%
Cc1cccc(NS(=O)(=O)c2cccc(C(=O)N3CCCC3)c2)c1	-2%	1%
CCCn1c(=S)[nH]c2cc(C(=O)N3CCN(C4CCCCC4)CC3)ccc2c1=O	0%	4%
Cc1nnc(SCC(=O)Nc2ccc(Br)cc2)n(N)c1=O	-4%	1%
CCc1ccc(S(=O)(=O)Nc2ccc(Br)cn2)cc1	13%	.
CN1CCN(S(=O)(=O)c2ccc(Sc3nc4ccccc4[nH]3)c3nsnc23)CC1	-4%	9%
COc1ccccc1CNC(=O)c1cc(S(=O)(=O)N2CCCC2)cn1C	22%	.
COc1ccc(C(=O)N2CCN(S(=O)(=O)c3cc(Cl)ccc3OC)CC2)cc1	1%	7%
O=C(CSc1nnc(-c2ccncc2)o1)Oc1ccccc1	-11%	-3%
CC1CCN(CC(O)COc2cccc(F)c2)CC1 (stereo not drawn)	-1%	-7%
CC(C)C(=O)Nc1nnc(SCC(=O)NCc2ccco2)s1	1%	2%
O=C(Cn1cccc1C(=O)c1ccccc1)NCc1cccc(Cl)c1	3%	0%
O=C(N/N=C/c1cccnc1)c1ccc(Cn2cc([N+](=O)[O-])cn2)o1	3%	0%
CCN(CC)C(=O)CSc1nc(N)c(C(=O)Nc2ccc(OC)cc2)s1	-4%	7%
Cc1ccc(NC(=O)C(=O)NCC2OCCc3ccccc32)cc1 (stereo not drawn)	1%	5%
O=C(CCNS(=O)(=O)c1ccccc1F)NCc1ccc2c(c1)OCO2	-2%	2%
CCOc1ccc(S(=O)(=O)N(CC)CC)cc1N	2%	5%
COC(=O)c1ccc2nc(NC(=O)CSCC(=O)OCC(=O)c3ccccc3)sc2c1	0%	3%
CCOC(=O)c1cc(=O)n2nc(-c3ccc(C)cc3)nc2s1	-6%	6%
O=c1c(O)c(-c2ccccc2)oc2ccccc12	-3%	-9%[56.1 µM]
COc1ccccc1/C=N/NC(=O)c1nnn(-c2nonc2N)c1CN(C)c1ccccc1	-20%	4%
COc1ccccc1N1CCN(C(=O)CCCNC(=O)Cn2cnc3sc(C)c(C)c3c2=O)CC1	4%	14%
COc1ccc(NC(=S)NN2CCN(C)CC2)cc1	-1%	6%
CCN1CCN(C(=O)c2nn(-c3ccc(C)cc3)c(=O)c3c2c2ccccc2n3C)CC1	-6%	7%
C=CCc1cc(/C=N/NC(=O)CSc2nnc(CCCc3ccc(OC)cc3)o2)cc(OC)c1O	-1%	7%
Cc1ccc(CNC(=O)CCNC(=O)c2ccc(Br)o2)cc1	-15%	4%
O=C(Cc1ccc(S(=O)(=O)N2CCOCC2)s1)N(Cc1ccccc1)c1ccccc1	-13%	-5%[0.505 µM]
CCOC(=O)CNC(=O)N1c2ccccc2Sc2ccccc21	16%	5%
CNC(=S)NNC(=O)c1sccc1OCc1ccc(Cl)cc1Cl	-2%	-2%
O=C(NNC(=O)c1csc(N2CCOCC2)n1)c1ccc(Cl)nc1	5%	0%
CCC1CCCCN1C(=S)NC(=O)c1ccc([N+](=O)[O-])cc1 (stereo not drawn)	3%	-3%
O=C(CSc1nccc(=O)[nH]1)c1ccco1	0%	.
Cc1ccccc1C(=O)Nc1nc(-c2cccnc2)cs1	9%	4%
CCOC(=O)c1nc(Nc2ccccc2)c2ccccc2n1	-1%	1%
CSc1ncccc1C(=O)OCC(=O)N(CC(C)C)C1CCS(=O)(=O)C1 (stereo not drawn)	4%	6%
CN1CCCC(OC(=O)c2ccccc2Br)C1 (stereo not drawn)	-1%	4%
N#CC(C#N)=Cc1ccc(OCC(=O)N2CCOCC2)cc1	1%	0%
Cc1ccc(C(C)(O)CS(=O)(=O)Cc2ccccc2)cc1 (stereo not drawn)	1%	.
CC(=O)c1cccc(N2C(=O)C3C(C(=O)Nc4cc(C)on4)C4(C)C=CC3(O4)C2C(=O)NC(C)(C)C)c1 (stereo not drawn)	3%	2%
C=CCC1(CC=C)CCCN1C(=O)CC1C(=O)NCCN1Cc1ccccc1OC (stereo not drawn)	3%	3%
CCSc1nc(=O)n(-c2ccccc2)c(C)c1C(C)=O	-3%	6%
CCC(C(=O)OCC(=O)c1ccc2c(c1)NC(=O)CO2)c1ccccc1 (stereo not drawn)	-16%	-5%
Cc1ccc(CC(=O)NCc2ccc(Cl)cc2)cc1	-6%	-7%
COc1cc(/C=N/NC(=O)c2cccc([N+](=O)[O-])c2)ccc1OCc1ccc(C)cc1	-5%	4%
CCc1ccc(C2NC(C(=O)O)CS2)cc1 (stereo not drawn)	.	3%

Single records, from the list above. Values in the order: FEN1 inh	TDP1 block
Cc1ccc(CC(=O)NCc2ccc(Cl)cc2)cc1 reads -6%	-7%
CCC1CCCCN1C(=S)NC(=O)c1ccc([N+](=O)[O-])cc1 (stereo not drawn) reads 3%	-3%
CCOC(=O)c1nc(Nc2ccccc2)c2ccccc2n1 reads -1%	1%
Cc1ccc(C(C)(O)CS(=O)(=O)Cc2ccccc2)cc1 (stereo not drawn) reads 1%	.
N#CC(C#N)=Cc1ccc(OCC(=O)N2CCOCC2)cc1 reads 1%	0%

The results go on:
SMILES	FEN1 inh	TDP1 block
COc1ccccc1CC(=O)Nc1ccc(S(=O)(=O)N2CCCC2)cc1	-1%	3%
CCOC(=O)c1ccc(NC2Nc3cc(C)nn3S2)cc1 (stereo not drawn)	-10%	0%
O=C(C[n+]1ccc2ccccc2c1)c1cccc2ccccc12	-12%	0%
COC(=O)c1cc(S(=O)(=O)N2CCN(c3ccccc3OC)CC2)cn1C	-5%	2%
Cc1ccc(CSCCC(=O)NCCc2ccc(Cl)cc2)cc1	-2%	-3%
COc1ccc(C(CC(=O)Nc2ncccc2C)N2Cc3ccccc3C2=O)cc1OC (stereo not drawn)	-8%&-3%	-3%
CCOC(=O)c1c(C)[nH]c(C)c1C(=O)COC(=O)c1cc2ccccc2cc1OC	-21%	8%
CC(C)(C)c1ccccc1OCC(O)CN1CCN(c2ccccn2)CC1 (stereo not drawn)	7%	.
Cc1cccc(C)c1NC(=O)CSc1nc(C2CC2)nc2ccccc12	-12%	.
Oc1ccc(-c2nnc(Nc3ccccc3)c3ccccc23)cc1	15%	5%
CCC(C)NC(=O)CSc1nc2cc3c(cc2c(=O)n1Cc1ccco1)OCO3 (stereo not drawn)	0%	4%
O=C(CCl)N(C1CCCC1)C1CCS(=O)(=O)C1 (stereo not drawn)	2%	5%
CCOc1cc(C(=O)N/N=C/c2ccsc2)cc(OCC)c1OCC	5%	3%
Cn1c(N)c(C(C[N+](=O)[O-])c2c(F)cccc2Cl)c(=O)n(C)c1=O (stereo not drawn)	-1%	.
COc1ccccc1CCC(=O)NNC(=O)c1ccncc1	0%	0%[0.505 µM]
CCOC(=O)N1CCN(C(=O)c2cnsn2)CC1	-3%	4%
O=C(COc1ccc(Cl)cc1Cl)Nn1c(=S)[nH]c2ncccc2c1=O	4%	1%
CCCOc1cccc(C2/C(=C(/O)c3ccc(OC)cc3)C(=O)C(=O)N2CCN(C)C)c1 (stereo not drawn)	0%	6%
COC(=O)C1=CN(CCCN2CCCC2=O)C=C(C(=O)OC)C1c1ccccc1C(F)(F)F	-5%	2%
CSCCC(NC(=O)c1ccccc1)C(=O)N1CCN(Cc2ccc(Cl)cc2)CC1 (stereo not drawn)	-13%	4%
CCOP(=O)(c1ccc(N(C)C)cc1)C(O)c1c(Cl)cccc1Cl (stereo not drawn)	-7%	3%
Cn1c(Cl)cnc1C(O)c1ccccc1 (stereo not drawn)	6%	-1%
O=C(Cc1ccccc1F)NCC(c1ccco1)N1CCCCC1 (stereo not drawn)	28%	0%
Cc1ccc(C)c(-c2nc3cc(N)ccc3o2)c1	2%	2%
Cc1ccc(-n2nnnc2SCC(=O)NCC2(N3CCOCC3)CCCCC2)cc1	-1%	8%
CCC(=O)N1CCN=C1SCc1cccc(C(F)(F)F)c1	-16%	-1%
CN(C)CCN1C(=O)c2oc3ccc(Cl)cc3c(=O)c2C1c1cccc(Br)c1 (stereo not drawn)	7%	2%
O=C(NCC1CCCCC1)c1ccc(F)cc1Cl	6%	4%
O=C(Cc1ccc([N+](=O)[O-])cc1)Nc1ccon1	10%	4%[56.1 µM]
CCOc1cccc2sc(NN)nc12	6%	11%

Some of the entries above in a different format.
Screens in order: FEN1 inh, TDP1 block
COC(=O)C1=CN(CCCN2CCCC2=O)C=C(C(=O)OC)C1c1ccccc1C(F)(F)F
  -5%, 2%
CSCCC(NC(=O)c1ccccc1)C(=O)N1CCN(Cc2ccc(Cl)cc2)CC1 (stereo not drawn)
  -13%, 4%
CCOP(=O)(c1ccc(N(C)C)cc1)C(O)c1c(Cl)cccc1Cl (stereo not drawn)
  -7%, 3%
Cn1c(Cl)cnc1C(O)c1ccccc1 (stereo not drawn)
  6%, -1%
O=C(Cc1ccccc1F)NCC(c1ccco1)N1CCCCC1 (stereo not drawn)
  28%, 0%
Cc1ccc(C)c(-c2nc3cc(N)ccc3o2)c1
  2%, 2%

Following part:
SMILES	FEN1 inh	TDP1 block
O=C(COc1ccc(F)cc1Br)N1CCN(c2ncccn2)CC1	-1%	2%
CC(=O)c1cccc(NS(=O)(=O)c2ccc(-c3cnc(C4CC4)o3)cc2)c1	-2%	3%
CC(C)CNC(=O)CSc1nc2nn(-c3ccccc3)c(=O)c-2c2n1CCCCC2	1%	2%
O=C(CSc1nnc(-c2ccccc2F)o1)OCc1ccccc1	16%	5%
CCc1nnc(NC(=O)c2nc(S(=O)(=O)Cc3ccc(C)cc3)ncc2Cl)s1	-6%&-8%	3%&-5%
CCC(C)(CC(=O)N(C)CCC#N)c1ccccc1 (stereo not drawn)	-13%	4%
O=C(c1cc(-c2ccc(O)cc2)on1)N1CCCc2ccccc21	3%	7%
O=C(CCC1CCCCC1)Nc1ccccc1O	-2%	2%
O=C(O)Cc1ccc(C(=O)c2ccccc2F)s1	4%	3%
Cc1ccc(NC(=O)CN(C)S(=O)(=O)c2ccc3c(c2)c(=O)n(C)c(=O)n3C)cc1	12%	2%
CC(=O)Nc1ccc(OCC(=O)c2cc(C)ccc2C)cc1	-5%	-1%
O=C(COc1ccc(Cl)cc1)NCCCNC(=O)c1ccncc1	7%	0%[0.0935 µM]
O=C(Oc1cccc2cccnc12)c1cccc([N+](=O)[O-])c1	0%	-1%
COc1ccc(CNC(=O)C(=O)NCC2CCCO2)cc1 (stereo not drawn)	-3%	-1%
Cn1cc(CCNC(=O)CCc2nnc(CCCCc3ccccc3)o2)cn1	13%	6%
Cc1ccc(OCCCC(=O)Nc2ccc(Br)cc2)cc1	-10%	3%
CCCCNC(=O)CNC(=S)N(Cc1cc(OC)c(OC)c(OC)c1)C1CCCC1	-2%	3%
COc1ccc2oc(C(=O)N(C)Cc3ccc(OC(F)F)cc3)c(C)c2c1	-14%	-1%
CCOC(=O)N1CCN(C(=O)c2cn(C)c3ccc(S(=O)(=O)N4CCCC4)cc3c2=O)CC1	0%	-3%
COc1ccc(NC(=O)CN2C(=O)c3ccccc3S2(=O)=O)cc1S(=O)(=O)N1CCOCC1	-3%	-2%
Cc1c([N+](=O)[O-])c(C(=O)Sc2ccc(Br)cc2)nn1C	0%	1%
CC(C)(C)c1cc(C(=O)CCN2CCOCC2)cc(C(C)(C)C)c1O	-7%	.
Cc1ccc(CNS(=O)(=O)c2c(N)n(C)c(=O)n(C)c2=O)cc1	19%	3%
Cc1cc(C(=O)N/N=C2\CCCC(=O)C2)c2ccccc2n1	1%	3%
CC(Cc1cccs1)NC(=O)Nc1ccccc1 (stereo not drawn)	3%	-2%
O=C(N/N=C/c1ccc(Sc2nc3ccccc3s2)c([N+](=O)[O-])c1)c1ccccn1	-7%	4%
Cc1ccc(-c2nnn(CC(=O)N(Cc3cccs3)C(C(=O)NC(C)(C)C)c3ccc(C)o3)n2)o1 (stereo not drawn)	-1%	0%
Cc1ccc(-c2cc(C(=O)NCc3ccc4c(c3)OCO4)[nH]n2)c(O)c1C	-5%	2%
CCN(CC)C(C(=O)Nc1ccc(C(C)C)cc1)c1ccc2c(c1)OCO2 (stereo not drawn)	-2%	3%
CCN(CC)S(=O)(=O)c1ccc2oc(C(=O)NCCN3CCOCC3)c(C)c2c1	7%	12%
COc1ccc(C(=O)NC=C2C(=O)OC(C)(C)OC2=O)cc1	3%	3%
CN(C)C(=O)CSc1nnc(-c2cc(-c3cccs3)nc3ccccc23)o1	-11%	3%
O=C(O)CCNC(=O)c1ccc(Br)o1	-10%	4%
O=C(CN1C(=O)NC(Cc2ccccc2)(Cc2ccccc2)C1=O)NCC1CCCCC1	-6%	3%
CCCCNC(=O)NS(=O)(=O)c1ccc(NC(=O)C(NC(N)=O)C(C)CC)cc1 (stereo not drawn)	11%	.
CCSc1nnc(NC(=O)c2ccccc2C)s1	-1%	0%
O=C(Oc1ccc(Br)cc1)c1cncc(Br)c1	1%	-5%
CCS(=O)(=O)N1CCC(C(=O)Nc2cc(C)ccc2O)CC1	4%	.
CCOc1ccccc1NC(=O)CCS(=O)(=O)c1ccc(OC)cc1	-11%&-2%	3%&-2%
COc1cccc(NC(=O)Cn2c(=O)oc3ccccc32)c1	7%	5%
CCOc1ccc(CCNC(=O)COc2cc(=O)n(C)c3ccccc23)cc1OCC	-6%	3%
O=C(NC(=S)N1CCCC1)c1ccccc1Cl	17%	2%
O=C(c1nn2c(C(F)(F)F)cc(-c3ccccc3)nc2c1Cl)N1CCOCC1	2%	-1%
